PrP 5UTR inh: inhibition of PrP 5' UTR reporter expression; 340,000 compounds, 0.35% hits; inhibition, % (no concentration beside the values); cell-based PrP 5' UTR mRNA reporter, plate reader; AID 488862, 2010;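 active means every replicate at 50% or more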;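 further: 0 = median of the neutral control wells; tested in H4 reporter cells; numbers are from one replicate; inactives centre near -14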
Autofluor counter: flagged as autofluorescent in microsphere protease counterscreen | compound autofluorescence counterscreen, microsphere flow cytometry; hits give high values | 360,000 compounds, 3.1% hits | AID 624483 | fluorescence intensity (no concentration beside the values);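 active means at least 3 SD above the mean of all compounds, about 16000 in these data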;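 further: 100 nL of 1 mM stock went into each well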
Mtb hypoxia rep: PubChem AID 1159583. 300,000 compounds, 0.1% hits. fluorescence inhibition, % (test concentration not listed). M. tuberculosis hypoxia-regulated fluorescent reporter, fluorescence;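 active means 35 to 45% if threefold the growth effect, above 45% if 1.5-fold the growth effect; inactive means the rest, general growth blockers included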;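 further: wells of about 50 µL received 100 nL stock; 0% = vehicle wells and 100% = reference inhibitor wells; whole bacteria with a GFP reporter of the hypoxia response; strong numbers were not always called active; many hits fall short of the cut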
ugtP null kill: growth inhibition of ugtP-null S. aureus, primary screen, RN4220 ugtP deletion, OD600; AID 1259309, 2017; 330,000 compounds, 0.54% hits; growth inhibition, % (concentration not given with the values); 16 h; some inactives read as strong as hits;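 active means z-score under -3 and OD600 up to 0.15 on both plates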;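 further: plate controls were untreated wells for no effect and antibiotic for full effect; wells of about 80 µL received 100 nL stock; the first replicate is given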
Sa RN4220 lethal: growth inhibition of S. aureus RN4220, primary screen, OD600 | inhibition, % (concentration not given with the values) | 16 h | 330,000 compounds, 0.33% hits | AID 1259311, 2017;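 active means z-score of -3 or lower and OD600 up to 0.18 on both plates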;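 further: plate controls were untreated cells for no effect and reference antibiotic for full effect; stock transfer was 100 nL into about 80 µL; one replicate is shown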
BJeLR lethal: MLPCN primary cell-based screen for lethality selective to Ras in HRASV12 cells; BJeLR (HRASV12) viability, CellTiter-Glo ATP luminescence, 48 h; reference of the scale not given here; inhibition, % (test concentration not listed); 300,000 compounds, 0.17% hits; AID 1554, 2009;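 active means replicate mean above 50%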;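 further: 50 nL library stock added to about 25 µL; numbers are from one replicate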
Mtb hypoxia rep growth: also measured in Mtb hypoxia rep; calls as there; growth inhibition, %; measured here: M. tuberculosis growth (absorbance);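 0% = vehicle and 100% = reference antibiotic; read after six days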
The depositor's hits bear a star.

A first look:
Results for CCN(C(=O)c1ccc(Cl)c([N+](=O)[O-])c1)c1ccccc1 ?
PrP 5UTR inh: -45; Autofluor counter: 3687; Mtb hypoxia rep: 12; ugtP null kill: 8; Sa RN4220 lethal: 4.1; BJeLR lethal: 4; Mtb hypoxia rep growth: 9

How did O=C(CCCCCNC(=S)Nc1ccc(Cl)cc1)C[N+](=O)[O-] do in these assays?
PrP 5UTR inh: -17; Autofluor counter: 2234; Mtb hypoxia rep: 9; ugtP null kill: 8; Sa RN4220 lethal: 1.5; BJeLR lethal: -4; Mtb hypoxia rep growth: 5

How did CCOC(=O)c1c(C)[nH]c(C(=O)COC(=O)C(C)N2C(=O)C3CCCCC3C2=O)c1C (stereo not given) do in these assays?
PrP 5UTR inh: -11; Autofluor counter: 24956*; Mtb hypoxia rep: 10; ugtP null kill: -6; Sa RN4220 lethal: -2.7; BJeLR lethal: -4; Mtb hypoxia rep growth: 8

All compounds of this part, from the start:
Results for CCN(C(=O)c1ccc(Cl)c([N+](=O)[O-])c1)c1ccccc1 ?
PrP 5UTR inh: -45; Autofluor counter: 3687; Mtb hypoxia rep: 12; ugtP null kill: 8; Sa RN4220 lethal: 4.1; BJeLR lethal: 4; Mtb hypoxia rep growth: 9

How did O=C(CCCCCNC(=S)Nc1ccc(Cl)cc1)C[N+](=O)[O-] do in these assays?
PrP 5UTR inh: -17; Autofluor counter: 2234; Mtb hypoxia rep: 9; ugtP null kill: 8; Sa RN4220 lethal: 1.5; BJeLR lethal: -4; Mtb hypoxia rep growth: 5

How did CCOC(=O)c1c(C)[nH]c(C(=O)COC(=O)C(C)N2C(=O)C3CCCCC3C2=O)c1C (stereo not given) do in these assays?
PrP 5UTR inh: -11; Autofluor counter: 24956*; Mtb hypoxia rep: 10; ugtP null kill: -6; Sa RN4220 lethal: -2.7; BJeLR lethal: -4; Mtb hypoxia rep growth: 8

Results for c1ccc(-n2nnnc2-c2cccnc2)cc1 ?
PrP 5UTR inh: -11; Autofluor counter: 3480; Mtb hypoxia rep: -2; ugtP null kill: -7; Sa RN4220 lethal: -0.3; BJeLR lethal: 0; Mtb hypoxia rep growth: 10

How did Cc1ccsc1C(=O)N/N=C/C=C/c1ccccc1[N+](=O)[O-] do in these assays?
PrP 5UTR inh: -21; Autofluor counter: 5063; BJeLR lethal: 1

What do the screens show for `COc1ccc(C(=O)ON=Cc2ccc(S(=O)(=O)c3ccc(Cl)cc3)nc2)cc1`?
Mtb hypoxia rep: 13; ugtP null kill: -1; Sa RN4220 lethal: 0.2; Mtb hypoxia rep growth: 2

Results for Cc1ccccc1CN1CCN(C(=O)Cc2ccccc2)CC1 ?
PrP 5UTR inh: 5; Autofluor counter: 3727; Mtb hypoxia rep: 7; ugtP null kill: 9; Sa RN4220 lethal: 4.9; BJeLR lethal: 1; Mtb hypoxia rep growth: -1

Results for COC(=O)c1ccc(NC(=O)C2CCCO2)cc1 (stereo not given) ?
PrP 5UTR inh: -25; Autofluor counter: 4213; Mtb hypoxia rep: 2; ugtP null kill: 0; Sa RN4220 lethal: 3.2; BJeLR lethal: -12; Mtb hypoxia rep growth: 10

How did O=C(Cc1cccc2ccccc12)NC(=S)Nc1cccc(C(=O)O)c1 do in these assays?
PrP 5UTR inh: -14; Autofluor counter: 4725; Mtb hypoxia rep: 3; ugtP null kill: 9; Sa RN4220 lethal: 3.1; BJeLR lethal: 1; Mtb hypoxia rep growth: 8

What do the screens show for `CCCCN1C(=O)C(=O)N(CC(=O)Nc2sc(C)c(C)c2C(=O)OC)C1=O`?
PrP 5UTR inh: -11; Autofluor counter: 7948; Mtb hypoxia rep: 1; ugtP null kill: 4; Sa RN4220 lethal: 2.4; Mtb hypoxia rep growth: 5

What do the screens show for `FC(F)C(F)(F)c1cc(-c2ccccc2)n[nH]1`?
PrP 5UTR inh: -35; Autofluor counter: 5731; Mtb hypoxia rep: 15; ugtP null kill: 5; Sa RN4220 lethal: 10; BJeLR lethal: 4; Mtb hypoxia rep growth: 12

Results for CCOC(=O)Cc1csc(NC(=O)Cc2ccc(C)cc2)n1 ?
PrP 5UTR inh: -4; Autofluor counter: 4602; Mtb hypoxia rep: 5; ugtP null kill: 4; Sa RN4220 lethal: 13; BJeLR lethal: 10; Mtb hypoxia rep growth: 6

How did CCn1cc(C(=O)O)c(=O)c2cc(F)c(N/N=C/c3ccccc3[N+](=O)[O-])cc21 do in these assays?
PrP 5UTR inh: -19; Autofluor counter: 7283; BJeLR lethal: -3

Results for Cc1ncc(CN=Cc2ccc(Cl)cc2)c(N)n1 ?
PrP 5UTR inh: -22; Autofluor counter: 4088; Mtb hypoxia rep: 5; ugtP null kill: 4; Sa RN4220 lethal: 2.7; BJeLR lethal: -1; Mtb hypoxia rep growth: 13

Results for Nc1ccccc1SCC1CSc2nc3ccccc3c(=O)n21 (stereo not given) ?
PrP 5UTR inh: -28; Autofluor counter: 4369; Mtb hypoxia rep: 5; ugtP null kill: 6; Sa RN4220 lethal: 0.0; BJeLR lethal: -1; Mtb hypoxia rep growth: 10

How did CCOc1cc(C(=O)Nc2ccc(S(=O)(=O)Nc3cc(C)on3)cc2)cc(OCC)c1OCC do in these assays?
PrP 5UTR inh: -34; Autofluor counter: 5275; ugtP null kill: 8; Sa RN4220 lethal: 3.8; BJeLR lethal: -9

What do the screens show for `Cn1c(=O)c2c(nc(CN3CCN(c4ccccc4)CC3)n2CCCc2ccccc2)n(C)c1=O`?
ugtP null kill: -5; Sa RN4220 lethal: 2.6; BJeLR lethal: 5

What do the screens show for `CCc1ccc(CN(C)C(=O)C2=CC=CN3CCS(=O)(=O)N=C23)cc1`?
PrP 5UTR inh: -17; Mtb hypoxia rep: 1; ugtP null kill: 4; Sa RN4220 lethal: 3.7; Mtb hypoxia rep growth: 6

How did CC(=NNC(=S)Nc1ccc(F)cc1)C1CC1 do in these assays?
Mtb hypoxia rep: -5; ugtP null kill: 4; Sa RN4220 lethal: 1.9; Mtb hypoxia rep growth: 5

What do the screens show for `Cc1ccc(OCC(=O)NN=Cc2cccs2)c([N+](=O)[O-])c1`?
Mtb hypoxia rep: -8; ugtP null kill: 4; Sa RN4220 lethal: 5.6; Mtb hypoxia rep growth: -5

How did COCCNC(=O)CSc1ccc(C)cc1 do in these assays?
PrP 5UTR inh: -16; Autofluor counter: 3934; Mtb hypoxia rep: 4; ugtP null kill: 4; Sa RN4220 lethal: 3.8; BJeLR lethal: 6; Mtb hypoxia rep growth: 10

What do the screens show for `O=C(CN(C(=O)CCC(=O)Nc1nccs1)c1cccc(F)c1)NCc1ccccc1`?
PrP 5UTR inh: -10; Autofluor counter: 6014; Mtb hypoxia rep: 0; ugtP null kill: 3; Sa RN4220 lethal: 2.7; BJeLR lethal: -13; Mtb hypoxia rep growth: 8

Results for CCNC(=O)n1nccc1C(C)Oc1ccc(Cl)cc1 (stereo not given) ?
PrP 5UTR inh: -5; Autofluor counter: 21790*; Mtb hypoxia rep: 6; ugtP null kill: 5; Sa RN4220 lethal: 3.3; BJeLR lethal: 2; Mtb hypoxia rep growth: 8

What do the screens show for `CCCNC(=O)Cc1ccsc1`?
PrP 5UTR inh: -20; Autofluor counter: 21829*; Mtb hypoxia rep: -2; ugtP null kill: 2; Sa RN4220 lethal: 1.9; BJeLR lethal: -2; Mtb hypoxia rep growth: 11

How did CC(C)NC(=O)c1ccc(CSCc2ccccc2Cl)o1 do in these assays?
PrP 5UTR inh: -18; Autofluor counter: 3907; Mtb hypoxia rep: 5; ugtP null kill: 0; Sa RN4220 lethal: 1.0; BJeLR lethal: -2; Mtb hypoxia rep growth: 4

Results for O=C1NC(=O)C(=Cc2ccc(O)cc2)S1 ?
Mtb hypoxia rep: 11; ugtP null kill: -8; Sa RN4220 lethal: -2.8; Mtb hypoxia rep growth: 9

What do the screens show for `CC(=O)c1cccc(NC(=O)CCc2nc3sc4c(c3c(=O)[nH]2)CCCC4)c1`?
PrP 5UTR inh: -19; Autofluor counter: 4670; Mtb hypoxia rep: -5; ugtP null kill: -5; Sa RN4220 lethal: -0.3; BJeLR lethal: 6; Mtb hypoxia rep growth: -2

What do the screens show for `C=CCn1c(SCc2cc(C(=O)OC)c(C)o2)nnc1-c1ccncc1`?
PrP 5UTR inh: -17; Autofluor counter: 8295; Mtb hypoxia rep: 5; ugtP null kill: 5; Sa RN4220 lethal: 3.2; BJeLR lethal: -5; Mtb hypoxia rep growth: 12

What do the screens show for `N#C/C(=C/c1ccc(-c2cc(C(=O)O)cc(C(=O)O)c2)o1)c1nc2ccccc2s1`?
Mtb hypoxia rep: 22; ugtP null kill: 9; Sa RN4220 lethal: 9.3; BJeLR lethal: -1; Mtb hypoxia rep growth: 6

What do the screens show for `CCCC(=O)Nc1c2c(nn1-c1ccc(F)cc1)CS(=O)(=O)C2`?
PrP 5UTR inh: -8; Autofluor counter: 2958; Mtb hypoxia rep: 2; ugtP null kill: 6; Sa RN4220 lethal: 5.6; BJeLR lethal: 4; Mtb hypoxia rep growth: -3

Results for CCc1ccc(NC(=O)c2cc(C)no2)cc1 ?
PrP 5UTR inh: -34; Autofluor counter: 4009; Mtb hypoxia rep: 3; ugtP null kill: 2; Sa RN4220 lethal: -1.1; BJeLR lethal: -2; Mtb hypoxia rep growth: 8

Results for C[C@@H](C(=O)OCC(=O)c1ccc(F)c(F)c1)N1C(=O)C2CCCCC2C1=O (stereo not given in full) ?
Mtb hypoxia rep: 11; ugtP null kill: -3; Sa RN4220 lethal: -0.5; Mtb hypoxia rep growth: 9

What do the screens show for `Fc1ccc(NC(=S)N2CCN(c3ccccn3)CC2)cc1Cl`?
PrP 5UTR inh: -3; Autofluor counter: 4175; Mtb hypoxia rep: 14; ugtP null kill: -3; Sa RN4220 lethal: -0.1; BJeLR lethal: -8; Mtb hypoxia rep growth: 4

What do the screens show for `CCc1nnc(NC(=O)/C=C/c2ccc(C)o2)s1`?
PrP 5UTR inh: -71; Autofluor counter: 2532; Mtb hypoxia rep: 2; ugtP null kill: -18; Sa RN4220 lethal: 3.7; BJeLR lethal: 9; Mtb hypoxia rep growth: 1

What do the screens show for `Cc1c(-c2n[nH]c(=S)n2-c2ccc(Br)cc2)nnn1-c1ccc(Cl)cc1`?
PrP 5UTR inh: -21; Autofluor counter: 4072; Mtb hypoxia rep: -7; ugtP null kill: 7; Sa RN4220 lethal: 0.6; BJeLR lethal: -3; Mtb hypoxia rep growth: -12

Results for CC(=O)c1ccc(C(=O)Nc2ccc3c(c2)C(=O)NC3=O)cc1 ?
PrP 5UTR inh: -13; Autofluor counter: 5487; Mtb hypoxia rep: 1; ugtP null kill: -9; Sa RN4220 lethal: 7.0; BJeLR lethal: 9; Mtb hypoxia rep growth: 1

Results for Nc1cccc(-c2nnc3n2CCCCC3)c1 ?
PrP 5UTR inh: -24; Autofluor counter: 4216; Mtb hypoxia rep: -2; ugtP null kill: 2; Sa RN4220 lethal: 2.4; BJeLR lethal: 3; Mtb hypoxia rep growth: 10

How did CCOc1ccc(NC(=O)CN2CCN(CC(=O)Nc3ccc(N(C)C)cc3)CC2)cc1 do in these assays?
PrP 5UTR inh: -20; Autofluor counter: 3530; Mtb hypoxia rep: -10; ugtP null kill: 2; Sa RN4220 lethal: 1.3; BJeLR lethal: 21; Mtb hypoxia rep growth: 5

Results for CCn1c(SCc2nc3cc(OC)c(OC)cc3c(=O)[nH]2)nnc1-c1ccncc1 ?
PrP 5UTR inh: -11; Autofluor counter: 5960; Mtb hypoxia rep: 18; ugtP null kill: 3; Sa RN4220 lethal: 2.1; BJeLR lethal: 8; Mtb hypoxia rep growth: 5

How did Cc1cc2oc(C(=O)Nc3ccc(S(=O)(=O)Nc4nccs4)cc3)cc(=O)c2cc1Cl do in these assays?
PrP 5UTR inh: -16; Autofluor counter: 2650; Mtb hypoxia rep: 14; ugtP null kill: -9; Sa RN4220 lethal: 3.6; BJeLR lethal: 1; Mtb hypoxia rep growth: 17

Results for CC(C)n1c2ccccc2c2nnc(SCC(=O)OCN3C(=O)c4ccccc4C3=O)nc21 ?
PrP 5UTR inh: -33; Autofluor counter: 5643; Mtb hypoxia rep: 2; ugtP null kill: -10; Sa RN4220 lethal: 2.6; BJeLR lethal: -7; Mtb hypoxia rep growth: 7

What do the screens show for `COc1ccccc1C(=O)NCCSCc1c(F)cccc1Cl`?
PrP 5UTR inh: 4; Autofluor counter: 3495; Mtb hypoxia rep: 4; ugtP null kill: -1; Sa RN4220 lethal: 6.3; BJeLR lethal: -7; Mtb hypoxia rep growth: -1

Screens deposited in PubChem by several laboratories.
